Assay outcomes as filed in PubChem.
WNV protease inh: blocks West Nile virus NS2B-NS3 protease activity; P06935; WNV NS2B-NS3 protease, fluorogenic substrate Ex360/Em465; active compounds read low; z-score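 (tested at a level between 10 and 100 µM)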; 0.18% of 65,000 active;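 active = z-score at -3 or under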;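 note: score is relative to mean and spread of the compound wells of a plate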
Target sequence (P06935 1371-1501 limits assumed): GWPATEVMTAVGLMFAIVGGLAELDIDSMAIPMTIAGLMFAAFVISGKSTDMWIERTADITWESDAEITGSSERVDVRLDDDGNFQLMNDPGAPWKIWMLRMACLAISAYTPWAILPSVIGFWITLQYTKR
Target sequence (P06935 1502-1679 limits assumed): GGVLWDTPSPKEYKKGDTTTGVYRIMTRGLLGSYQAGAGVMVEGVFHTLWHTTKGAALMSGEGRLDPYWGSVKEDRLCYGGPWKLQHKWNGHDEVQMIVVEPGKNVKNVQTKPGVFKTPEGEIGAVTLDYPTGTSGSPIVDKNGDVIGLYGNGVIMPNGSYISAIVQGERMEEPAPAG
MT1-MMP reporter: MT1-MMP gene expression reporter suppression – cell-based, luciferase reporter, luminescence (AID 618); MT1-MMP promoter luciferase reporter cells, luminescence; calls from a first round at 10 µM; hits with a dose series show EC50 in µM; 0.62% of 87,000 active;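 active = over half of the reporter light lost at 10 µM or EC50 under 50 µM; inactive = the rest and hits that failed the dose series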;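 note: actives suppress MT1-MMP promoter-driven transcription so potencies describe inhibitors; HT1080 fibrosarcoma cells; overnight exposure; toxic or luciferase-blocking compounds were not removed from the actives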
Hsc70 ATP site: small molecules displacing fluorescent ligand from Hsc70 – biochemical, fluorescence polarization, primary screen (AID 568) | Hsc70 fluorescence polarization, probe displacement; higher % means a stronger effect; strong numbers were not always called active | 83,000 tested, under 10 active | displacement, % at 20 µM; hits with a dose series show IC50 in µM;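 active = displacement above 50% without optical interference and an IC50 on retest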;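 note: ATPase domain with a fluorescein-tagged ATP probe; 0% = vehicle and 100% = excess ADP; read after one hour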
Starred values were filed as active, the others as inactive; i = inactive; · = no result given.

| compound | WNV protease inh | MT1-MMP reporter | Hsc70 ATP site |
| --- | --- | --- | --- |
| Cc1cc(C(=O)COc2cccc(-n3cnnn3)c2)c(C)n1-c1ccccc1 | 0.47 | i | -3.6% |
| O=CN(CCN(C=O)CN1CCCCC1)CN1CCCCC1 | -0.37 | i | -0.6% |
| COc1ccc(NCc2n[nH]nc2-c2ccccc2)cc1Cl | -0.45 | i | -0.1% |
| Cc1cc(C(=O)N2CCN(c3ncccn3)CC2)c2cc(F)ccc2n1 | 1.2 | i | -0.8% |
| CC1=C(C(=O)NC(C)C)C2(CCC(C)CC2)OC1=O (centres undefined) | 0.24 | i | 2.0% |
| CCCOC(=O)CSc1nnc(-c2ccc(Cl)cc2Cl)o1 | 0.73 | i | -0.5% |
| CCOC(=O)c1ccc2c(c1)N(CC)/C(=C\C=C1/SC(=S)N(CC)C1=O)N2CC | · | i | -80% |
| O=C(Nc1cccc(Cl)c1)Nc1cccc(Cl)c1 | · | i | 2.2% |
| CCN1CCN(Cc2ccc(NC(=O)CC3Oc4ccc(C)cc4NC3=O)cc2)CC1 (centres undefined) | -0.46 | i | -1.3% |
| CCOC(=O)c1cc2cc(OC)ccc2nc1C | · | i | -0.4% |
| O=C(Cn1cnc2c(cnn2-c2ccccc2)c1=O)N1CCCc2ccccc21 | -0.8 | i | 5.1% |
| CC(C)(C)c1cc(C(=O)Nc2cccc3ccccc23)ccn1 | · | i | 29% |
| NC(=O)C1CCN(C(=S)c2cccs2)CC1 | 0.37 | i | 0.6% |
| O=C(O)Cn1cc(C(=O)c2cccs2)c2ccccc21 | -0.11 | i | -2.2% |
| CCOc1ccc(S(=O)(=O)NCCC(=O)NC2=NCCS2)cc1 | 0.56 | i | -3.9% |
| COC(=O)CCCC(=O)Nc1c(F)c(F)c(F)c(F)c1F | 2.5 | i | 1.8% |
| CC(C)C(=O)Nc1ccc(NC(=O)c2ccccc2Cl)nc1 | 0.73 | i | 1.5% |
| CCN(CC)CCOC(=O)c1ccc(Cl)cc1 | · | i | -7.0% |
| O=C1C2CC=CCC2C(=O)N1CC(=O)N(Cc1ccccc1)C1CCS(=O)(=O)C1 (centres undefined) | -0.65 | i | 2.2% |
| CCOC(=O)Cc1nnc(NC(=O)C(CC)Sc2nnc3c4ccccc4n(C)c3n2)s1 (centres undefined) | -0.78 | i | -1.7% |
| Cc1ccc2c(CC(=O)OCc3nc(N)nc(Nc4ccccc4C)n3)coc2c1 | -1.4 | i | -2.5% |
| C[C@H](NC(=O)Nc1ccc2c(c1)OCCO2)C(=O)O | 0.38 | i | 1.3% |
| CCSc1sccc1C1C(C#N)=C(N)N(c2cccnc2)C2=C1C(=O)CCC2 (centres undefined) | -0.34 | i | -4.7% |
| COCCn1c(CCC(=O)O)nc2c1c(=O)[nH]c(=O)n2CC(C)C | -0.74 | i | 1.3% |
| Nn1c(SCC(=O)N2CCOCC2)nnc1-c1ccc(Cl)cc1Cl | 1 | i | 0.4% |
| CCCN(CCC)C(=O)CSc1ncccc1C(=O)O | · | i | 4.3% |
| CN(CC(=O)NC1CCCc2ccccc21)S(=O)(=O)c1ccc2c(c1)c(=O)n(C)c(=O)n2C (centres undefined) | -1.1 | i | 2.3% |
| CCOC(=O)CCc1c(C)c(C#N)c2nc3ccccc3n2c1-n1ccnc1C | 0.66 | i | -0.6% |
| COc1nc(N)nc(CC(=O)C2CC2)n1 | -0.8 | i | 4.1% |
| CC(C1CC1)N(C(=O)NC1CCS(=O)(=O)C1)c1ccccc1 (centres undefined) | -0.48 | i | 0.3% |
| O=C(O)CCC(=O)Nc1ccc(Br)cn1 | -0.25 | i | -1.6% |
| CC(C)c1ccc(CC(C)C2C3=C(CCCC3=O)OC3=C2C(=O)CCC3)cc1 (centres undefined) | · | i | -0.7% |
| Nc1nnc(CSc2ccc(Cl)cc2)s1 | -0.64 | i | -1.0% |
| CC(NC(=O)C1CCC1)c1ccc(Cl)cc1 (centres undefined) | 0.61 | i | 1.1% |
| COc1cccc(-n2c(Cc3cc(=O)[nH]c(=O)[nH]3)nnc2SC(C)C)c1 | 0.72 | i | -2.0% |
| CCOC(=O)N1CCN(C(=O)c2ccc(OC)c(OC)c2)CC1 | · | i | 0.7% |
| CC(=O)Nc1nc2ccccc2n1CCN(C)C | -0.88 | i | -0.3% |
| CCOC(=O)C1CCCN(C(=O)COc2ccccc2O)C1 (centres undefined) | · | i | -0.4% |
| Cn1cccc1C(=O)NC(=O)COC(=O)CC12CC3CC(CC(Br)(C3)C1)C2 | · | i | 0.7% |
| CCOc1ccc(N/C(SC)=C(/C#N)C(N)=O)cc1 | 1.4 | i | -10% |
| O=C(CN1C(=O)CCSc2ccccc21)Nc1ccc2c(c1)OCCO2 | -1.2 | i | 2.9% |
| C=CCn1cc(-c2ccccc2)cc(C#N)c1=O | · | i | 8.3% |
| COC(=O)c1ccc(NC(=O)c2ccccc2NS(C)(=O)=O)cc1 | -0.38 | i | -3.9% |
| COc1ccc(-n2nc(C(=O)N3CCN(c4ccc(F)cc4)CC3)c3ccccc3c2=O)c(OC)c1 | 0.92 | i | -7.1% |
| Cc1cc(C)c(S(=O)(=O)N2C=CC(C(F)(F)F)=NCC2)c(C)c1 | · | i | -0.1% |
| O=S(=O)(Nc1nc2ccccc2s1)c1ccc(Cl)s1 | · | i | 1.9% |
| CCOc1ccc(N(C(C)=O)c2nc(C)cc(C)c2C#N)cc1 | · | i | -6.3% |
| CCOC(=O)C1CCN(c2c(NC3CCCc4ccccc43)c(=O)c2=O)CC1 (centres undefined) | -0.54 | i | 5.8% |

The last five entries of the part above are carried over, then new ones follow.
| compound | WNV protease inh | MT1-MMP reporter | Hsc70 ATP site |
| --- | --- | --- | --- |
| COc1ccc(-n2nc(C(=O)N3CCN(c4ccc(F)cc4)CC3)c3ccccc3c2=O)c(OC)c1 | 0.92 | i | -7.1% |
| Cc1cc(C)c(S(=O)(=O)N2C=CC(C(F)(F)F)=NCC2)c(C)c1 | · | i | -0.1% |
| O=S(=O)(Nc1nc2ccccc2s1)c1ccc(Cl)s1 | · | i | 1.9% |
| CCOc1ccc(N(C(C)=O)c2nc(C)cc(C)c2C#N)cc1 | · | i | -6.3% |
| CCOC(=O)C1CCN(c2c(NC3CCCc4ccccc43)c(=O)c2=O)CC1 (centres undefined) | -0.54 | i | 5.8% |
| O=C(CCc1ccc(S(=O)(=O)N2CCOCC2)cc1)Oc1ccccc1 | 0.67 | i | 5.0% |
| COC(=O)c1ccc(COc2ccc3c(C)c(C)c(=O)oc3c2C)o1 | 1.1 | i | 1.5% |
| COc1ccc(-c2c(N)nnc3c2[nH]c2ccccc23)cc1OC | 1.1 | i | 6.6% |
| CC1CCN(CCCNC(=O)Cc2c(C(=O)O)n(C)c3ccccc23)CC1 | 0.92 | i | -7.8% |
| Cc1cc(S(=O)(=O)Nc2cc(C)c(O)c(C)c2)c(C)s1 | · | i | 1.6% |
| CC(=O)NCC1=C(NC(C)=O)C2CC1C(C)(C)C2C (centres undefined) | 0.92 | i | 1.1% |
| COc1ccc(OC)c(S(=O)(=O)N2CCC(C(=O)NCCC3=CCCCC3)CC2)c1 | -0.5 | i | -0.7% |
| COc1ccc(C2CC(c3cc(OC)ccc3OC)n3nnnc3N2)cc1 (centres undefined) | -0.27 | i | 5.6% |
| COc1c(Br)cc(Br)cc1/C=N/n1c(C)nnc1C | 0.43 | i | -7.9% |
| C=CCN(C(=O)CCC(=O)Nc1cc(C)on1)C(C(=O)NC1CCCC1)c1cccnc1 (centres undefined) | -0.99 | i | -1.2% |
| O=C(CCN1c2ccccc2Sc2ccccc21)Nc1ccccc1 | · | i | -13% |
| CCN1CCN(c2nc3ccccc3nc2C(C#N)C(=O)OCc2ccccc2)CC1 (centres undefined) | -0.72 | i | -12% |
| COC(=O)C1CCN(C(=O)c2ccc(NC(C)=O)cc2)CC1 | 0.9 | i | -4.3% |
| CC(=O)c1ccc(NC(=O)CSCCO)cc1 | 0.32 | i | 6.1% |
| CCCn1c(NCc2ccc3c(c2)OCO3)nc2ccccc21 | -1.1 | i | 0.4% |
| CC(C)n1c(SCC(=O)Nc2nc3ccccc3s2)nc2c1c(=O)n(C)c(=O)n2C | · | i | -0.5% |
| CC(=O)c1cccc(NC(=O)C2CCCN(S(C)(=O)=O)C2)c1 (centres undefined) | 1.5 | i | 7.4% |
| N#Cc1ccc(C23CC4CC(CC(C4)C2)C3)[nH]c1=O | -0.79 | i | 2.0% |
| CCc1c(C)sc(NC(=O)OC)c1C(=O)N1CCOCC1 | -0.89 | i | 3.8% |
| O=C(CCCc1c[nH]c2ccccc12)NCc1ccc2c(c1)OCO2 | · | i | 21% |
| O=C(NCc1ccco1)c1cc2ccc(O)cc2oc1=O | 9.6 | i | -2.0% |
| Cc1ccc(NC(=O)NCC(c2cccnc2)N2CCOCC2)cc1 (centres undefined) | 0.09 | i | -6.0% |
| CCOC(=O)c1ccc(N2C(=O)CC(N(C)CCc3ccc(OC)c(OC)c3)C2=O)cc1 (centres undefined) | -0.1 | i | -0.1% |
| CN(c1ccc(OCC(=O)N2CCCCC2)cc1)S(=O)(=O)c1cccs1 | 0.95 | i | 2.0% |
| Cc1ccc(NC(=O)N2CCC(c3nc4c(nnn4Cc4cccc(Cl)c4)c(=O)[nH]3)CC2)cc1 | 0.32 | i | 0.7% |
| O=C(CSc1nnc2ccccn12)c1ccc2c(c1)OCCO2 | -0.91 | i | -0.7% |
| COC(=O)CC1=C(C(=O)OC)C(c2cccc(OCC(N)=O)c2)C(C#N)=C(N)O1 (centres undefined) | -0.64 | i | 3.1% |
| Cn1cc(SCC(=O)Nc2nc3ccccc3s2)c2ccccc21 | -0.06 | i | -24% |
| O=C(NCc1ccco1)c1cc2sccc2n1Cc1ccc(F)cc1 | -0.3 | i | -10% |
| C=CCN1C(=O)CN=C1NCc1ccccc1 | -0.63 | i | -3.9% |
| COc1ccccc1N1CCN(C(=O)c2sc3nc(-c4ccc(F)cc4)cn3c2C)CC1 | -0.5 | i | -6.8% |
| CCN(c1ccc(C)c(C)c1)S(=O)(=O)c1ccc2c(c1)CCN2C(=O)CCC(=O)O | · | i | 0.5% |
| Cc1ccc2[nH]cc(CCNC(=O)Nc3ccccc3)c2c1 | · | i | -0.5% |
| CCCn1c(NC(=O)c2ccccc2)nc2ccccc21 | 2.6 | i | -0.9% |
| O=C(Nc1ccc(S(=O)(=O)C(F)F)cc1)c1cccc(S(=O)(=O)N2CCOCC2)c1 | -0.75 | i | 3.3% |
| CCc1nnc(NC(=O)C2COc3ccccc3O2)s1 (centres undefined) | · | i | 2.6% |
| COc1ccc(CCNC(=O)c2ccncc2)cc1OC | 1.2 | i | 1.2% |
| COC(=O)c1cccc(NC(=O)c2ccc(S(=O)(=O)N3CCN(C)CC3)cc2)c1 | -0.45 | i | -0.6% |
| CCOC(=O)c1sc2nc(CSCC(=O)OCc3ccc(C(=O)OC)o3)[nH]c(=O)c2c1C | -0.79 | i | -25% |
| Cc1cc(NC(=O)Cn2nc(C(F)(F)F)c3c2CCC3)no1 | 0.84 | i | 4.1% |
| COc1ccccc1NC(=O)c1sc(NC(=O)c2ccco2)c(C#N)c1C | · | i | 3.8% |
| CN(C1CCCCC1)S(=O)(=O)c1ccc(NC(=O)C2CCCCC2C(=O)O)cc1 (centres undefined) | 1.6 | i | 0.1% |
| CCOC(=O)c1cnc(-n2nc(C)cc2C)nc1NC1CCCCC1 | 1.3 | i | 1.7% |
| COc1cc(OC)cc(-c2nc(N)n[nH]2)c1 | 0.68 | i | 0.1% |
| CN1C(=O)CC(N2CCN(c3ncccn3)CC2)C1=O (centres undefined) | -0.93 | i | -8.2% |
| CCC(OC(=O)c1cccs1)C(=O)NC1CCCCC1 (centres undefined) | 0.67 | i | -6.7% |
| COc1ccccc1-c1ccc(Nc2cccc(C(C)=O)c2)nn1 | -0.55 | i | 3.8% |
| Cc1onc(-c2ccccc2Cl)c1C(=O)Nc1ccc(-n2nncc2-c2ccco2)cc1 | -0.38 | i | -6.3% |
| Cc1cccc(-c2cc3nc(C)cc(NCCCN(C)C)n3n2)c1 | -0.88 | i | 1.6% |
| Clc1cc(Cl)c2nc(N3CCOCC3)sc2c1 | 0.13 | i | -4.3% |
| COC(=O)c1cc(COC(=O)c2ccc(OC)c(S(=O)(=O)N3CCCC3)c2)oc1C | -0.66 | i | 0.5% |
| CCCOCC(O)COc1ccccc1C(=O)N1CCOCC1 (centres undefined) | -0.65 | i | -3.1% |
| CCOc1ccc(NC(=O)CN(C)CC(=O)Nc2cccc(Cl)c2C)cc1OCC | · | i | 3.6% |
| COc1ccc(-c2ccc(SCC(=O)N3CCOCC3)nn2)cc1OC | 0.23 | i | 4.4% |
| Cc1nc(N2CCN(S(=O)(=O)c3ccc(F)cc3)CC2)c2c(C)c(C)sc2n1 | -0.4 | i | 5.4% |
| COc1ccc(S(=O)(=O)Nc2ccc(S(=O)(=O)Nc3nc(C)cc(C)n3)cc2)cc1OC | 0.71 | i | -2.0% |
| Cc1ccccc1Cn1nnc(C(=O)Nc2cccc(C)c2C)c1N | 0.16 | i | -2.4% |
| C/C=C/c1ccc(OCCCNCC(C)O)c(OC)c1 (centres undefined) | 1.8 | i | -4.8% |
| COc1ccc(CCNS(=O)(=O)c2cn(C)c(=O)n(C)c2=O)cc1OC | 0.37 | i | 1.9% |
| CCCCC(=O)Nc1nnc(C)s1 | -0.13 | i | -2.6% |
